RN4220 kill = growth inhibition of S. aureus RN4220, primary screen, OD600 | 16 h | inhibition, % (concentration not given with the values) | actives 0.33% (n = 330,000) | AID 1259311, 2017;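 active = z-score of -3 or lower and OD600 up to 0.18 on both plates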;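 note: plate controls were untreated cells for no effect and reference antibiotic for full effect; stock transfer was 100 nL into about 80 µL; one replicate is shown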
Mtb hypoxia rep = PubChem AID 1159583 | M. tuberculosis hypoxia-regulated fluorescent reporter, fluorescence | fluorescence inhibition, % (concentration not given with the values) | actives 0.1% (n = 300,000);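 active = 35 to 45% if threefold the growth effect, above 45% if 1.5-fold the growth effect; inactive = the rest, general growth blockers included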;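 note: wells of about 50 µL received 100 nL stock; 0% = vehicle wells and 100% = reference inhibitor wells; whole bacteria with a GFP reporter of the hypoxia response; strong numbers were not always called active; many hits fall short of the cut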
ugtP null kill = growth inhibition of ugtP-null S. aureus, primary screen, RN4220 ugtP deletion, OD600 | 16 h; some inactives read as strong as hits | growth inhibition, % (no concentration beside the values) | actives 0.54% (n = 330,000);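 active = z-score under -3 and OD600 up to 0.15 on both plates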;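 note: plate controls were untreated wells for no effect and antibiotic for full effect; wells of about 80 µL received 100 nL stock; the first replicate is given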
Autofluor counter = compound fluorescence in toxin protease inhibitor counterscreen | fluorescence intensity (concentration not given with the values) | compound autofluorescence counterscreen, microsphere flow cytometry; active compounds read high | AID 624483 | actives 3.1% (n = 360,000);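 active = at least 3 SD above the mean of all compounds, about 16000 in these data; inconclusive = too few beads counted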;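 note: 100 nL of 1 mM stock went into each well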
PrP 5UTR inh = inhibition of PrP 5' UTR reporter expression | AID 488862, 2010 | actives 0.35% (n = 340,000) | cell-based PrP 5' UTR mRNA reporter, plate reader | inhibition, % (concentration not given with the values);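 active = every replicate at 50% or more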;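 note: 0 = median of the neutral control wells; tested in H4 reporter cells; numbers are from one replicate; inactives centre near -14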
BJeLR viability = MLPCN primary cell-based screen for lethality selective to Ras in HRASV12 cells; BJeLR (HRASV12) viability, CellTiter-Glo ATP luminescence, 48 h; reference of the scale not given here; inhibition, % (no concentration beside the values); actives 0.17% (n = 300,000); AID 1554, 2009;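 active = replicate mean above 50%; inconclusive = above 50% but judged a plate artefact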;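 note: 50 nL library stock added to about 25 µL; numbers are from one replicate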
Mtb hypoxia rep growth = also measured in Mtb hypoxia rep; calls as there; growth inhibition, %; measured here: M. tuberculosis growth (absorbance);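 0% = vehicle and 100% = reference antibiotic; read after six days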
* marks the source's active call; other numbers are inactive results; ? = inconclusive; . = no result given; & = joins results of further samples. Rows were taken by chance; overall some 4% were active at least once.

Molecule | RN4220 kill | Mtb hypoxia rep | Mtb hypoxia rep growth | ugtP null kill | Autofluor counter | PrP 5UTR inh | BJeLR viability
CCN(C(=O)COC(=O)/C=C/c1ccco1)c1c(N)n(Cc2ccccc2)c(=O)[nH]c1=O | 0.2 | 2 | 1 | -2 | 4551 | -10 | .
O=C(CC1Sc2ccccc2NC1=O)OCc1cc(=O)oc2cc(O)ccc12 (stereo not given) | 45 | 2 | 2 | 16 | 7011 | -22 | 16
COc1ccc(NC(=O)NS(=O)(=O)c2ccc(C)cc2)cn1 | 2.7 | 3 | 5 | 7 | 2714 | -17 | -3
O=C(NC(=S)Nc1cccc(NC(=S)NC(=O)c2ccco2)n1)c1ccco1 | 10 | 3 | 3 | 6 | 3106 | -16 | -2
CC(=O)Oc1ccc2ccccc2c1C(NC(=O)Cc1ccccc1)c1ccccc1 (stereo not given) | 0.9 | -1 | -2 | 4 | 9778 | -9 | -1
Cc1ccc(C(=O)N[C@H](C(=O)Nc2ccc(N3CCOCC3)cc2)C(C)C)cc1 | 3.0 | -2 | 0 | 2 | 4980 | -16 | .
COc1cccc(C(C)=NN=C(C)c2cccc(OC)c2)c1 | 3.2 | -2 | 5 | 5 | . | . | .
CCCCNC(=O)CN1CCN(Cc2ccc3cc(OC)ccc3c2)CC1 | 5.0 | 9 | -13 | 10 | 3765 | -18 | -1
Cc1cc(C)c2nc(C)cc(Nc3ccc(C(=O)N(C)C)cc3)c2c1 | 0.4 | 3 | 6 | 1 | . | . | -1
O=C(Nc1ccccc1)/C(=C/c1ccc(O)cc1)NC(=O)c1ccco1 | 4.0 | -1 | -7 | 2 | 3837 | -22 | -4
O=C(NCCCNC(=O)c1ccco1)c1ccc(Cl)cc1 | 2.4 | 11 | 5 | 2 | 3855 | -1 | -3
Cc1ccc(-n2ncc3c(NCc4ccccn4)ncnc32)c(C)c1 | 3.5 | . | . | 1 | 4026 | -16 | -4
C[C@@]12C(=O)N(c3ccccc3)C(=O)N1C1c3ccccc3OCC1C2c1ccccc1 (stereo not given in full) | 12 | 4 | 8 | 8 | . | . | .
C1=C(CCNc2ncnc3c2[nH]c2ccccc23)CCCC1 | 32 | 4 | 13 | 35 | 4683 | -41 | .
COc1ccc(C(=O)COC(=O)c2sc(C)nc2C)cc1F | 2.0 | -3 | 6 | -7 | 3575 | -8 | .

Among those listed so far, these contain an NH in an aromatic ring:
Molecule | RN4220 kill | Mtb hypoxia rep | Mtb hypoxia rep growth | ugtP null kill | Autofluor counter | PrP 5UTR inh | BJeLR viability
CCN(C(=O)COC(=O)/C=C/c1ccco1)c1c(N)n(Cc2ccccc2)c(=O)[nH]c1=O | 0.2 | 2 | 1 | -2 | 4551 | -10 | .
C1=C(CCNc2ncnc3c2[nH]c2ccccc23)CCCC1 | 32 | 4 | 13 | 35 | 4683 | -41 | .

The main list resumes, starting 4 compounds before the break.
Molecule | RN4220 kill | Mtb hypoxia rep | Mtb hypoxia rep growth | ugtP null kill | Autofluor counter | PrP 5UTR inh | BJeLR viability
Cc1ccc(-n2ncc3c(NCc4ccccn4)ncnc32)c(C)c1 | 3.5 | . | . | 1 | 4026 | -16 | -4
C[C@@]12C(=O)N(c3ccccc3)C(=O)N1C1c3ccccc3OCC1C2c1ccccc1 (stereo not given in full) | 12 | 4 | 8 | 8 | . | . | .
C1=C(CCNc2ncnc3c2[nH]c2ccccc23)CCCC1 | 32 | 4 | 13 | 35 | 4683 | -41 | .
COc1ccc(C(=O)COC(=O)c2sc(C)nc2C)cc1F | 2.0 | -3 | 6 | -7 | 3575 | -8 | .
CN1C(=O)C(C)(C)c2cc(S(=O)(=O)NCCc3ccc(Cl)cc3)ccc21 | 0.4 | . | . | 0 | 5577 | 2 | -8
COc1ccccc1/C=C/C=N/NC(=O)c1ccc(=O)n(C)c1 | . | . | . | . | 1962 | -13 | -8
Cc1cc(=O)[nH]c(NN=Cc2ccc(Br)s2)n1 | -1.8 | 6 | -4 | -6 | . | . | .
CCOc1cc2nc(-c3ccc(OC)c(OC)c3)nc(NCCCN3CCOCC3)c2cc1OC | 1.1 | . | . | -21 | 9410 | -26 | 6
N#CCC(=O)Nc1ccc(C(=O)OCC(=O)NC(=O)Cc2ccccc2)cc1 | -0.3 | 1 | -7 | 10 | 4401 | -14 | -15
O=C(O)COc1ccccc1/C=C1\C(=O)NC(=O)N(CCC2=CCCCC2)C1=O | 2.4 | 4 | -1 | 4 | 3391 | -8 | -1
COc1ccc(C)cc1NC(=S)NC12CN3CN(CN(C3)C1)C2 | 3.5 | -2 | -3 | 3 | . | . | 4
Cc1ccc(C(=O)N(CN2CCCC2=O)c2ccc(F)cc2)cc1 | 1.0 | 2 | -7 | -1 | 24017* | -14 | -2
COc1ccc(OC)c(NC(=O)C2CCN(c3cc(-c4ccccc4)nc4ncnn34)CC2)c1 | 0.0 | 5 | 2 | -5 | 22638* | -4 | 5
Cc1nccn1-c1cc(C(C)(C)C)nc2c(-c3ccccc3)cnn12 | 4.3 | -1 | 7 | -17 | 1959 | -23 | 1
O=C(NC1CC1)C1=CC(c2ccc(Br)cc2)CC(OCc2ccc(CO)cc2)O1 (stereo not given) | 3.4&1.7 | 17&14 | 7&9 | 0&-3 | . | . | .
CCOC(=O)c1nc2sc3c(c2c(=O)[nH]1)CCCC3 | 4.0 | 11 | 10 | -5 | 2847 | 0 | 10
Nn1c(SCC(=O)N2CCOCC2)nnc1C1CC1 | 0.3 | 0 | 9 | 14 | 3221 | -4 | 6
CC(=O)c1ccccc1OC(=O)COc1ccc(Cl)cc1C | 3.3 | 10 | 6 | 4 | . | -29 | -2
COc1ccc(-c2nn(CCC#N)cc2C(=O)NCc2ccccc2)cc1 | 2.4 | 6 | 8 | 7 | 4249 | -8 | -10

New compounds follow:
Order of values: RN4220 kill, Mtb hypoxia rep, Mtb hypoxia rep growth, ugtP null kill, Autofluor counter, PrP 5UTR inh, BJeLR viability
> CN(C)/C=C/C(=O)c1cnc(-c2ccccc2Cl)s1
 : 3.2, 12, 13, 8, 4516, -50, 9
> CC(Oc1cccc(Cl)c1)C(=O)Nc1nc(-c2ccccn2)cs1 (stereo not given)
 : 66, 6, 16, 87, ?, 8, 15
> Cc1ccc(S(=O)(=O)N2CCC(C)CC2)cc1C(=O)NCc1ccccn1
 : -0.2, -13, 2, 0, 5693, -4, 4
> CC1CN(S(=O)(=O)c2ccc(C(=O)O)cc2)CC(C)O1 (stereo not given)
 : 6.3, -4, 2, 6, 4542, -4, -14
> C=CCOc1ccccc1/C=N/O
 : ., ., ., ., 24314*, -95, -7
> COc1cccc(CN2CCNC(=O)C2CC(=O)N(C)CC2CCOCC2)c1OC (stereo not given)
 : 2.1, 5, 8, 5, 5343, -15, -1
> CCOC(=O)N1CCN(C(=O)Cn2nc(C)n3nc(-c4ccccc4)cc3c2=O)CC1
 : 3.7, 11, -5, 9, 4031, 0, 7
> COc1ccccc1C(=O)NC(=O)COC(=O)c1ccc([N+](=O)[O-])cc1Cl
 : 3.1, 11, 3, 2, 5764, 15, -15
> COc1ccc(C)cc1S(=O)(=O)N(CC(N)=O)Cc1ccccc1
 : 5.3, ., ., 3, 3630, -2, 10
> Cc1cc(NC(=O)CCC(=O)NNC(=O)c2ccc(C(C)(C)C)cc2)no1
 : 7.2, 16, 3, 8, 2032, -18, 1
> CCC(=O)Oc1ccc2c(C)cc(=O)oc2c1C(=O)c1ccccc1
 : 7.6, 16, 0, 6, 8913, -14, 6
> CSc1nnc(CNC(=O)c2ccccc2)n1-c1cccc(C)c1
 : 2.2, -10, 0, -8, 4188, -15, -4
> Cc1ccc(-n2ncc3c(NNC(=O)c4ccco4)ncnc32)cc1C
 : -0.9, 5, 8, 1, 5211, -44, 0
> COCCN1CN(S(=O)(=O)c2ccc(Cl)cc2)c2nc3ccccc3nc21
 : -12, 17, 13, -7, 3458, -15, 1
> COc1ccccc1/C=C/C=N/NC(=O)CCn1nnc2ccccc21
 : ., ., ., ., 2500, -10, 0
> Cc1cc(C)c(S(=O)(=O)N2CCN(C(=O)c3cccs3)CC2)c(C)c1
 : 5.5, 6, -6, 0, 2672, -31, -2
> COc1ccccc1N1CCN(C(=O)CSc2nc3ncnc(N)c3[nH]2)CC1
 : 0.4, 1, 5, 2, 5596, -35, -1
> Cc1ccc(S(=O)(=O)N2CCCC(C(=O)NCCc3ccccc3)C2)cc1 (stereo not given)
 : 0.6, 12, 9, 5, 3054, -18, 4
> CN(c1cccc(NC(=O)CN(c2cccc(F)c2)S(C)(=O)=O)c1)S(C)(=O)=O
 : 2.2, 14, 1, 6, 4331, -17, .
> C/C(=N\NC(=O)c1nnn(-c2nonc2N)c1CSc1ccc(Cl)cc1)c1cccnc1
 : ., ., ., ., 5991, -13, 7

Going on with the list:
Order of values: RN4220 kill, Mtb hypoxia rep, Mtb hypoxia rep growth, ugtP null kill, Autofluor counter, PrP 5UTR inh, BJeLR viability
> Cc1ccc2c(c1)N(C(=O)CCC(=O)NCc1cccc(F)c1)CCO2
 : -9.4, 9, 11, -9, 5462, -20, 2
> S=C(NCCc1ccccc1)Nc1ccccn1
 : 3.8, 15, 12, 4, 2204, -44, -1
> CCCOP(=O)(c1ccc(N(C)C)cc1)C(O)c1ccc(Cl)cc1 (stereo not given)
 : 2.4, 6, -1, 1, 3293, -10, 5
> Cc1cc(Cl)ccc1NC(=O)CN(C)C1=NS(=O)(=O)c2ccccc21
 : 1.8, 3, 3, 0, 9154, -15, .
> Cc1nc(Cl)c(C(=O)NCc2ccccc2)c(C)c1Cl
 : 9.8, 7, 6, 10, 3290, -16, -6
> O=C(Nc1ccc(Cl)cc1C(=O)N1CCOCC1)c1ccco1
 : 0.7, -5, 3, 1, 6302, -19, 13
> O=[N+]([O-])c1ccccc1S(=O)(=O)N/C(=N/S(=O)(=O)c1ccccc1)c1ccccc1
 : 2.5, 12, 11, 9, 3044, -20, .
> COc1cccc(OCCNC(=O)c2cc(OC)c(OC)c(OC)c2)c1
 : 2.5, 3, 4, 2, 3054, -3, -16
> COc1ccc(-c2cc(C(=O)OCC(=O)NC3CC3)c3ccccc3n2)cc1
 : 9.0, 5, 1, -1, 8876, -16, .
> CC1CCCN(CCS(=O)(=O)c2ccccc2)C1 (stereo not given)
 : 2.2, 25, 13, 10, 6017, -27, 1
> COC(=O)C1=C(C)N(Cc2ccccc2)C(=S)N[C@H]1c1ccccc1
 : ., ., ., ., 3782, 6, 3
> COc1ccccc1C(=O)NCc1n[nH]c(=S)n1Cc1ccccc1
 : 9.0, 18, 0, 7, 4485, -18, 1
> COC(=O)COc1cc(Br)c(/C=C2/SC(=O)N(CC(=O)N3CCCC3)C2=O)cc1OC
 : 1.0, 0, 1, 2, 4231, 5, -18
> O=C(O)c1cccc2c1C(=O)N(Cc1ccncc1)C2
 : -4.8, -2, 2, -3, ?, 3, 1
> CCOc1ccc(CCNC(=O)COC(=O)/C=C/c2ccc(C)o2)cc1OCC
 : 3.6, -1, -1, -3, 6406, -5, 4
> CCOC(=O)c1sc2nc3n(c(=O)c2c1C)CCC3
 : 3.5, 10, 6, 3, 1851, -28, 2
> COc1ccccc1OCC(=O)Nc1nc(-c2ccc(S(=O)(=O)N3CCOCC3)cc2)cs1
 : 2.6, ., ., -16, 4371, 11, -5
> CCOCCCNC(=O)c1ccc(CS(=O)(=O)c2cccc(C(F)(F)F)c2)o1
 : 1.1, 14, 4, 4, 3423, 3, -6

Screening results: PubChem BioAssay, several laboratories
